Assay outcomes deposited in PubChem by PCMD.
Calb biofilm kill: mixtures killing C. albicans biofilm | C. albicans biofilm persisters + clotrimazole, fluorescence viability; primary screen in compound mixtures of four per well | inhibition, % at 7.6 µM | 120,000 compounds, 0.02% hits | AID 1242;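 active = inhibition above 30.3% in the primary screen of four-compound pools, then above 30% when the compound was retested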;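 note: compounds exposed to preformed 24 h biofilms for 48 h; the number belongs to the whole pool; some results filed as inactive read as strong as hits; inactives centre near 12; 0% = biofilm with clotrimazole alone and 100% = kill control; retested singly at about 60 µM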
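Probe or stimulus – Clotrimazole 50 µg/mL co-treatment · System – C. albicans biofilms · Schedule – 24 h biofilm formation, then 48 h compound exposure, 37 °C · Evaluation – percent inhibition of biofilm viability · Technique – 2-h Alamar Blue fluorescence, 535/590 nm excitation/emission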
An asterisk follows results filed as active; & = joins results of further samples. A portion of the library (hit frequency here may not be typical).

structure,Calb biofilm kill
Cc1cc(C(=O)CSc2nc(N)cc(N)n2)c(C)n1-c1cccc(C(F)(F)F)c1,9
Cc1ccc(CN=c2c([N+](=O)[O-])nn(-c3cccc(Cl)c3)n2O)cc1,13
O=C(CNC(=O)c1ccccc1C(=O)O)c1ccccc1,6
N#Cc1ccc(C(=O)NC2CCCc3ccccc32)cc1 (stereo not drawn),1
CCCCCCc1cc2cc(S(=O)(=O)c3ccc(F)cc3)c(=O)oc2cc1O,5
COc1ccc(CCNC(=O)C2CC3Cn4c(nc5cc(Cl)c(Cl)cc54)C3N2C)cc1 (stereo not drawn),16
Cc1ccc(C)c(OCC(=O)NC(Cc2c[nH]c3ccccc23)C(=O)O)c1 (stereo not drawn),25
CCCNc1ncnc2onc(C)c12,-5
CCN1CCN(CCCN(Cc2ccco2)C(=S)Nc2cc(Cl)ccc2C)CC1,-6
CN1CCC(Oc2ccc(Sc3ccccc3)cc2)CC1,6
COc1ccc(/C=C/CN2CCN(Cc3cccc(OC)c3)C(CCO)C2)cc1 (stereo not drawn),-10
CC1(C)CC(=O)C(Sc2ccccc2)=C(O)C1,20
O=C(NC(=S)NCCO)c1cn(-c2ccccc2)nc1-c1ccccc1,10
O=C(Nc1ccc([N+](=O)[O-])cn1)c1cc(-c2cccc(Br)c2)nc2ccccc12,16
CC(C)Oc1ccc(CCc2n[nH]c(=S)n2-c2ccccc2)cc1,14
N=C1S/C(=C\c2ccc(-c3ccccc3C(=O)O)o2)C(=O)N1c1ccc2c(c1)OCO2,10
CC(C)OCCCNC(=O)CCC(=O)NNc1nc2ccccc2c2nc(-c3ccccc3)nn12,10
O=C(NC1CCCCC1)C(c1ccc(F)cc1)N(Cc1ccco1)C(=O)c1ccccn1 (stereo not drawn),-2
CCN1CCN(CCc2nc3cc([N+](=O)[O-])ccc3n2C)CC1,13
O=C(Nc1ncccc1Cl)c1ccccc1F,10

3 compounds out of the list, sorted by number of heavy atoms, low to high:
structure,Calb biofilm kill
CCN1CCN(CCc2nc3cc([N+](=O)[O-])ccc3n2C)CC1,13
N=C1S/C(=C\c2ccc(-c3ccccc3C(=O)O)o2)C(=O)N1c1ccc2c(c1)OCO2,10
O=C(NC1CCCCC1)C(c1ccc(F)cc1)N(Cc1ccco1)C(=O)c1ccccn1 (stereo not drawn),-2

The results go on:
structure,Calb biofilm kill
COc1cccc(NC(=O)COC(=O)CC(NC(N)=O)c2ccc(Cl)cc2)c1 (stereo not drawn),17
C#CCOCCOCCOCCNc1nc(N2CCN(C(=O)[C@H](Cc3ccc(O)cc3)n3cc(C(N)CC(C)C)nn3)CC2)nc(N2CCN(C(=O)[C@H](CCC(=O)O)n3cc(C(N)[C@H](C)CC)nn3)CC2)n1 (stereo partly drawn),13
O=C(Cc1ccc(-n2cccc2)cc1)NCc1ccccc1Cl,12
S=c1[nH]nc(CNc2ccc(Cl)cc2)n1Cc1ccccc1,31
CCOC(=O)c1c(NC(=O)CSc2nnc(Cc3ccccc3)o2)sc(C)c1C,11
Cc1nc(SCC2(C)CC2(Cl)Cl)n[nH]1 (stereo not drawn),7
O=C1NC(=Nc2ccccc2)SC1Cc1ccccc1 (stereo not drawn),10
Cc1cccc(Cn2nc(C(C)(C)C)cc2C(=O)Nc2ccc(F)cc2)c1,21
CCn1c(=O)c([N+](=O)[O-])c(NCC2CCCO2)c2ccccc21 (stereo not drawn),25
Cc1cc(C)nc(SCc2cn3c(C)cccc3n2)n1,10
CCOc1cc(S(=O)(=O)n2ccc(C)n2)ccc1Br,9
C=CCNC(=S)/C(=C(/[O-])c1ccccc1Br)[n+]1ccccc1,5
COC(=O)c1ccc2c(c1)N(Cc1cc(C)ccc1C)C(=O)c1ccccc1S2=O (stereo not drawn),13
CC(=O)NCCC1CCCCN1Cc1nc(Cc2cccc(C(F)(F)F)c2)no1 (stereo not drawn),3
Cc1cc(C)nc(SCc2ccc([N+](=O)[O-])cc2)n1,9
COCC1=C(C(=O)OC)C(c2cccs2)n2ncnc2N1 (stereo not drawn),-5
CNC(=O)COC(=O)c1cc(SC)ccc1Cl,14
COc1ccc(S(=O)(=O)N(CC(=O)NCc2cccnc2)C2CCCCC2)cc1OC,30
COC(=O)C1=NNC2(c3ccc(Cl)cc3)C(=O)N(c3ccccc3)C(=O)C12 (stereo not drawn),16
COc1ccc(/C=N/NC(=O)c2ccncc2)c(C(=O)O)c1OC,32

5 successive records out of the list so far:
structure,Calb biofilm kill
COC(=O)c1ccc2c(c1)N(Cc1cc(C)ccc1C)C(=O)c1ccccc1S2=O (stereo not drawn),13
CC(=O)NCCC1CCCCN1Cc1nc(Cc2cccc(C(F)(F)F)c2)no1 (stereo not drawn),3
Cc1cc(C)nc(SCc2ccc([N+](=O)[O-])cc2)n1,9
COCC1=C(C(=O)OC)C(c2cccs2)n2ncnc2N1 (stereo not drawn),-5
CNC(=O)COC(=O)c1cc(SC)ccc1Cl,14

(next part)
structure,Calb biofilm kill
CCOC(=O)/C=c1\s/c(=C\c2ccc(-c3ccccc3)cc2)c(=O)n1CC(=O)NCc1ccc2c(c1)OCO2,8
C=CCNC(=S)NCc1cccnc1,-7
Cc1ccc(S(=O)(=O)Nc2ccc(O)c3ncccc23)cc1,7
O=C(NCC1CC1)c1ccc2c3n(nc2c1)-c1ccccc1CO3,14
Cc1ccc2nc(COc3ccc(Cl)cc3)cc(=O)n2c1,9
COC(=O)c1cccc(Cn2cc([N+](=O)[O-])cn2)c1,11
O=C(Nc1cccc(Cl)c1)c1ccc(NCC2CCCO2)c([N+](=O)[O-])c1 (stereo not drawn),15
CCc1cc2cc3c(cc2nc1SCC(=O)Nc1cc(OC)c(OC)cc1C(=O)O)OCO3,5
COc1cccc(/C=N/NC(=O)c2ccc3nc[nH]c3c2)c1O,28
C[C@H]1[C@H](C)CC[C@]2(C(=O)O)CC[C@]3(C)C(=CC[C@@H]4[C@@]5(C)C[C@@H](O)[C@H](O)C(C)(C)[C@@H]5CC[C@]43C)[C@H]12,15
COc1ccc(CCNC(=S)N(C)C)cc1OC,9
Cc1ccoc1C(=O)NCCNc1ccc(Cl)cc1[N+](=O)[O-],8
O=C(O)C1CCCCC1C(=O)Nc1ccc(F)c(F)c1 (stereo not drawn),13
O=C(CSc1nnc(-c2ccncc2)n1CCc1ccccc1)N1CCCC1,11
CC(C)(C)c1ccc(C(=O)NCC(=O)OCC(=O)Nc2ccc3c(c2)OCCO3)cc1,10
CC(/C=N/NC(=O)c1ccco1)=C\c1ccccc1,15
Cc1ccc(C)n1-c1cc([N+](=O)[O-])ccc1-n1ccnc1,16
CN(C)c1ccc2c(=O)[nH][nH]c(=O)c2c1,10
O=C(NNC(=O)c1cccnc1SCc1cccc([N+](=O)[O-])c1)c1cccnc1,20
Cc1ccc(-n2[nH]c(C)c(CCC#N)c2=O)cc1,14
COc1ccc(OC)c(NC(=O)c2cccc(Cn3cc(Br)c([N+](=O)[O-])n3)c2)c1,11
O=C1CC(NNc2ccccc2)C(=O)N1c1ccccc1 (stereo not drawn),18
O=C(CSc1ccc2ccccc2c1Br)Nc1cccc(S(=O)(=O)NC2=NCCCCC2)c1,6
C=C(C)C1CCC2(C(=O)O)CCC3(C)C(CCC4C5(C)C(C=O)C(O)C(C)(C)C5CCC43C)C12 (stereo not drawn),18
CCNC(=S)N/N=C(\C)c1ccc2ccccc2c1,14
Cc1cc(C)n2nc(SCC(=O)N/N=C/c3ccccn3)nc2n1,11
O=C(COC(=O)C12CC3CC(CC(C3)C1)C2)Nc1ccc([N+](=O)[O-])cc1Cl,15
Cc1ccccc1S(=O)(=O)NC1=NCCCCC1,6
O=C(CCC(=O)N(CC(=O)NC1CCCCC1)Cc1cccs1)Nc1ccccn1,15
O=C(O)Cc1ccc(-c2ccccc2-c2ccccc2)cc1,6
COC(=O)c1c(NC(=O)COC(=O)Cn2cnc3ccccc32)sc2c1CCCC2,3
CCOC(=O)c1ccc2nc(C)c(C)nc2c1,10
CC(C)(C)C(=O)O/N=C(\N)c1ccc(Br)cc1,12
O=C1c2cccc(Sc3ccccc3)c2C(=O)c2c(Sc3ccccc3)cccc21,17
Cc1noc(C)c1CSc1ncnc2sc3c(c12)CCC(C)C3 (stereo not drawn),11
O=c1[nH]cc(O)c(=O)[nH]1,17
CC(=O)Nc1ccc(C(=O)NNC(=O)c2cc([N+](=O)[O-])cc([N+](=O)[O-])c2)cc1,29
COc1ccc(/C=C/C(=O)c2cc(Cl)ccc2O)c(OC)c1,14
OCc1cn(-c2ccccc2)nn1,15
Cc1sc2ncnc(OCC(=O)NC3CCS(=O)(=O)C3)c2c1C (stereo not drawn),10
Oc1ccc(/C=N/n2cc(-c3ccccc3)[nH]c2=S)cc1,1
CC(=O)Nc1ccc(C(=O)CSc2cc(C)c3cccc(C)c3n2)cc1,7
O=C(Nc1cccc(C(=O)N2CCN(c3ccc(F)cc3)CC2)c1)c1ccccc1,6
C=C(C)CSc1nc2c(c(=O)[nH]c(=O)n2C)n1Cc1ccccc1,22
CS(=O)(=O)N1CCN(c2ccc(Cl)cc2[N+](=O)[O-])CC1,10
Cc1[nH]c2ccccc2c1SCC(=O)N1CCCCCC1,17
Cc1[nH]n(-c2ccccc2)c(=O)c1N=Nc1ccccc1C(=O)N1CCCCC1,12
C[C@]12CCC(=O)C=C1CC[C@@H]1[C@@H]2[C@@H](O)C[C@@]2(C)[C@H]1CC[C@]2(O)C(=O)COC(=O)CCC(=O)O,10&10
CCOCCOC(=O)c1ccc(NC(=O)c2cc(OC)c(OC)c(OC)c2Br)cc1,16
CCC(C)(C)NC(=O)/C=C/c1ccc(OC)c(S(=O)(=O)N2CCOCC2)c1,6

The list goes on:
structure,Calb biofilm kill
CCCNC(=O)Cn1c(=O)/c(=C\c2ccc(-c3cccc([N+](=O)[O-])c3)o2)s/c1=C\C(=O)C(C)(C)C,8
Cc1ccc(NS(=O)(=O)c2cccc(C(=O)NCC3(N(C)C)CCCCC3)c2)cc1,8
O=C(CCC(=O)Nc1ccc(F)cc1)N/N=C/c1ccncc1,12
CCc1nnc(NC(=O)C2(C)COC(c3ccccc3)OC2)s1 (stereo not drawn),15
Nc1nnnn1/N=C/c1cc([N+](=O)[O-])ccc1O,26
CC(=O)Nc1ccc2cc3ccc(NC(C)=O)cc3nc2c1,-2
Cc1ccc(C)c(OCC(=O)Nc2ccc(S(=O)(=O)N3CCN(C)CC3)cc2)c1,3
COc1cc2c(cc1OC)-c1n[nH]c(=S)n1C(C)(C)C2,-2
Cc1ccc(-c2csc3ncnc(-n4nnc5ccccc54)c23)cc1,12
CCC(=O)Nc1ccc2c(c1)ncn2-c1ccc(C)cc1,6
CCOC(=O)c1c(C)[nH]c(C(=O)Nc2ccc(NC(C)=O)cc2)c1C,10
C#CCOCCOCCOCCNc1nc(N2CCN(C(=O)Cn3cc(CCCCN)nn3)CC2)nc(N2CCN(C(=O)[C@H](C)n3cc(CCCN=C(N)N)nn3)CC2)n1,11
COc1cc(C(=O)NC(=S)NC(C)C)cc(OC)c1OC,8
Cn1nnnc1-c1cc(Cl)cc(Cl)c1,13
O=C(c1cnn(-c2ccc(Cl)cc2)c1)c1ccccc1O,18
Cc1ccc(NC(=O)NC(=O)CSc2n[nH]c(N)n2)c(C)c1,14
CC(C)C(C(=O)O)N1CCS(=O)(=O)CC1 (stereo not drawn),-1
CC(=O)N/C(=C\c1ccccc1)C(=O)NCC(=O)O,16
COCCCNc1nc2nonc2nc1N1C[C@H]2CC[C@H]1C2,5
COc1cc(/C=N\NC(=O)c2ccc(Cl)cc2)ccc1Oc1ccc([N+](=O)[O-])cn1,7
CCn1c(/C=C/Nc2ccccc2)[n+](CC)c2ccc(C(=O)OCC(F)(F)F)cc21,19
COc1ccc(NC(=O)CNc2ccc(C#N)cc2)cc1,-9
NC(=S)NNc1ccc(Cl)c(Cl)c1,11
CN(CCOc1ccc(Cl)cc1)C(=O)c1ccc(S(=O)(=O)N2CCOCC2)cc1,11
COc1ccc(C(=O)NCc2ccc3c(c2)OCO3)cc1,8
COc1ccc(S(=O)(=O)N2CCOCC2)cc1NC(=O)c1ccc(-n2nc(C)cc2C)cc1,2
O=C1C2C3C=CC(CC3)C2C(=O)N1/N=C/c1ccco1 (stereo not drawn),17
O=C1CC(N2CCN(c3ncccn3)CC2)C(=O)N1CCc1ccccc1 (stereo not drawn),18
Clc1ccc(-c2csc(-c3cccnc3)n2)s1,15
O=S(=O)(Nc1cccc2[nH]ncc12)c1cccs1,9
CN(CCC#N)C(=S)Nc1ccc(Oc2ccccc2)cc1,9
Cc1ccc(C2=NNC(c3ccc(Cl)cc3)=Nc3ccccc32)o1,8
Cc1ccc(-c2nn(-c3ccccc3)cc2/C=C/C(=O)OCC(=O)NC2CC2)o1,16
COC(=O)C1=C(C)N(Cc2ccc3c(c2)OCO3)C(=O)C1,17
CCCCCCCCCCS(=O)(=O)N/N=C/c1ccc(O)cc1,3
CC(C)(C)C(=O)Cn1nnc(-c2ccc(C(F)(F)F)cc2)n1,23
Cn1cc(/C=C2\SC(=S)N(NC(=O)c3ccccc3)C2=O)c2ccccc21,13
Cc1onc(-c2ccccc2)c1-c1nnc(-c2ccccc2C(F)(F)F)o1,16
N#C/C(=C\c1ccc(F)c(Cl)c1)S(=O)(=O)c1ccccn1,4
O=C(c1cc2c(cc1Br)OCCCO2)N1CCCCC1,21
CS(=O)(=O)N1CC(C(=O)O)Oc2ccc(CC(=O)O)cc21 (stereo not drawn),15
CN(C)C(=O)COC(=O)c1ccccc1NC(=O)c1ccco1,16
